Cruzain inh Det = inhibitors of Trypanosoma cruzi cruzain with detergent; P25779; purified cruzain, Z-FR-AMC fluorescence, 0.01% Triton; Potency, µM, for inactives: max response, negative = inhibition, hits mostly inhibitors; actives 0.43% (n = 200,000); AID 1478; active = well fitted curve in the direction sought with a large enough effect; inconclusive = small, poorly fitted or top-dose-only effect, or another doubt; inactive = no such curve, though single readings can be large; an effect the other way counts as inactive or inconclusive;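 also: plate controls were neutral wells for no effect and buffer without enzyme for full effect; nearly all actives have a fitted effect of over 40% in size; top concentration of the series not given in the record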
Target sequence (P25779 123-467 limits assumed): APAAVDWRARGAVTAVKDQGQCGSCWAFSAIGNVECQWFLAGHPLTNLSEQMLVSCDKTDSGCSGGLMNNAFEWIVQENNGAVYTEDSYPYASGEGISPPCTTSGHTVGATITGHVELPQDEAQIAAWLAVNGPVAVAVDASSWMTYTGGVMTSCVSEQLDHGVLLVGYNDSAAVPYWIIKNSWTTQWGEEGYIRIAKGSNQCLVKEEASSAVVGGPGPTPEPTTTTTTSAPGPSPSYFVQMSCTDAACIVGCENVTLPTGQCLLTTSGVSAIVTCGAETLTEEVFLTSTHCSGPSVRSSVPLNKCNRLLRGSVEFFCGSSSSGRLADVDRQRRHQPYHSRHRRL
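Purified cruzain (1.5 nM final) was preincubated with compounds for 15 min at room temperature in 100 mM sodium acetate pH 5.5, 5 mM DTT, 0.01% Triton X-100. Reaction started with 2 uM Z-FR-AMC; AMC fluorescence change over 60 s gave activity.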
SARS PLpro yeast = blocks SARS-CoV papain-like protease in a yeast assay. actives 0.19% (n = 330,000). S. cerevisiae expressing SARS-CoV PLpro, growth rescue; control for the full effect not named in the record. AID 485353. Potency, µM (doses to about 32.9 µM), without a hit: at the highest dose activity, positive = growth rescue; also: 0% is about no effect; nearly all actives have a fitted effect of over 55% in size; growth read by luminescence after 48 h
NS1 inh = influenza NS1 inhibition | S. cerevisiae slowed by influenza A NS1, growth recovery by OD600 | actives 0.4% (n = 270,000) | Potency, µM (doses to about 46.1 µM), without a hit: at the top dose activity, positive = more growth | AID 2326; also: actives are rising curves; nearly all actives have a fitted effect of over 50% in size
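S. cerevisiae expressing influenza A NS1, grown in glucose, washed, then diluted 1:100 into pH 6.0 -URA galactose medium with 23 nl compound. Growth recovery read as OD600; NS1-free strain serves as control.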
Cruzain noTriton = inhibitors of Trypanosoma cruzi cruzain without detergent; P25779; purified cruzain, Z-FR-AMC fluorescence, no detergent; Potency, µM, without a hit: max response, negative = inhibition, actives largely listed as inhibitors; actives 2.3% (n = 200,000); AID 1476; active = well fitted curve in the direction sought with a large enough effect; inconclusive = small, poorly fitted or top-dose-only effect, or another doubt; inactive = no such curve, though single readings can be large; an effect the other way counts as inactive or inconclusive;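 also: plate controls were enzyme without inhibitor for no effect and buffer without enzyme for full effect; nearly all actives have a fitted effect of over 40% in size; top concentration of the series not given in the record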
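Detergent-free condition (0.00005% Triton X-100) in acetate buffer pH 5.5 with DTT. 1.5 nM enzyme and compound were pre-mixed 15 min, then 2 uM Z-FR-AMC substrate added; reaction progress from fluorescence change between first and third reads (60 s).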
RE007 growth inh = less growth of the S. pombe RE007 Vpr strain; S. pombe RE007 Vpr strain, BacTiter-Glo ATP luminescence, 24 h; control for the full effect not named in the record; Potency, µM (series often up to 92.2 µM), for inactives: top-dose activity change, negative = less growth; actives 0.21% (n = 360,000); AID 651644; active = well fitted falling curve with a large enough effect; inconclusive = small, poorly fitted or top-dose-only effect; inactive = no such curve, though single readings can be large or run the other way;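 also: % is scaled to controls: 0 for no effect and ±100 for the full control effect; nearly all actives have a fitted effect of over 50% in size; the assay follows cell death caused by Vpr and the record does not say whether a fall means rescue or toxicity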
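Fission yeast RE007 carrying one integrated HIV-1 vpr copy, seeded at OD 0.01 in PMG+AL medium with 23 nL pinned compound. Grown 24 h at 30 degrees; viability read by BacTiter-Glo luminescence after 5 min.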
2A StopGo = FMDV 2A StopGo reporter, luciferase signal. human cells with a luciferase reporter of 2A StopGo recoding; control for the full effect not named in the record. Potency, µM (doses to about 57.9 µM), for the others: at the highest dose signal change, negative = less light. actives 1.2% (n = 410,000); active = well fitted falling curve with a large enough effect; inconclusive = small, poorly fitted or top-dose-only effect; inactive = no such curve, though single readings can be large or run the other way; tested in HEK293T cells; also: % is scaled to controls: 0 for no effect and ±100 for the full control effect; nearly all actives have a fitted effect of over 45% in size; luciferase light after 4 h
Marburg entry inh = blocks Marburg virus binding to or entry into cells. Marburg virus pseudotyped entry inhibition, cell reporter; control for the full effect not named in the record; about a third of the inactives were read at about 46 µM. Potency, µM (highest dose often 37.8 µM), for inactives: top-dose activity change, negative = inhibition, usual class: inhibitors. actives 1.8% (n = 300,000). AID 540276; active = well fitted inhibition curve with a large enough effect; inconclusive = small, poorly fitted or top-dose-only effect, or effect the other way; inactive = flat fitted curve, though single readings scatter; tested in HEK293 cells; about a fifth of its hits are not listed in these tables; also: % is scaled to controls: 0 for no effect and ±100 for the full control effect; luciferase read-out
LASV entry inh = inhibitors of Lassa virus binding or cell entry | Potency, µM (series often up to 37.9 µM), for the others: top-dose activity change, negative = inhibition, usual class: inhibitors | actives 1.2% (n = 300,000) | AID 540256 | Lassa virus pseudotype entry inhibition, cell reporter; control for the full effect not named in the record; active means well fitted inhibition curve with a large enough effect; inconclusive means small, poorly fitted or top-dose-only effect, or effect the other way; inactive means flat fitted curve, though single readings scatter; tested in HEK293 cells; also: % is scaled to controls: 0 for no effect and ±100 for the full control effect; nearly all actives have a fitted effect of over 50% in size; luciferase read-out
* hit, by the source's call; u = inconclusive; x = no result given; [ ] = dose if it differs, or a comment. Unless noted, calls follow the shape of the dose curve; as a rule, active means well fitted rising curve with a large enough effect; inconclusive means small, poorly fitted or top-dose-only effect; inactive means no such curve, though single readings can be large or run the other way. Potency is read from the fitted curve at half-maximal effect.

Molecule	Cruzain inh Det	SARS PLpro yeast	NS1 inh	Cruzain noTriton	RE007 growth inh	2A StopGo	Marburg entry inh	LASV entry inh
CCOc1ccc(-c2nnc(SCC(=O)O)n2Cc2ccccc2)cc1	x	3%	17%	x	5%	1%	-1%[46.1 µM]	-33%[46.1 µM]
O=C(NNC(=O)C12CC3CC(CC(C3)C1)C2)c1csc(N2CCOCC2)n1	x	2%	x	x	-6%	0%	-2%	-4%
CCN(CC(=O)Nc1ccc(OC)cc1)C(=O)Cc1ccsc1	x	-1%	x	x	18%	-7%	-6%	-17%
COC(=O)c1c(C)oc2ccc(N(C(=O)c3ccncc3)S(=O)(=O)c3c(C)cc(C)cc3C)cc12	-4.4%	x	x	-4%	x	u	u	u
O=S(=O)(c1ccc(F)cc1)N1CCN(S(=O)(=O)c2cccs2)CC1	x	x	9%	x	-13%	-15%	10%	u
O=C(O)CSCC(=O)N1CCc2c([nH]c3ccccc23)C1C(F)(F)F (stereo not given)	x	1%	-3%	x	-3%	-7%	8%[46.1 µM]	20%[46.1 µM]
COc1cc(Cl)ccc1OCc1cc(C(=O)N(C)CCc2cnn(C)c2)no1	x	0%	-7%	x	8%	17%	x	x
CCOc1ccc(C(C)=O)cc1N1C(=O)C2C3C=CC(C3=C(C)C)C2C1=O (stereo not given)	1.7%	-3%	3%	-1%	0%	-16%	3%	3%
CCN(C(=O)COC(=O)c1cc(C)n(-c2ccc(F)cc2)c1C)C1CCS(=O)(=O)C1 (stereo not given)	0.2%	7%	1%	u	7%	0%	-9%	-15%
Cc1ccc(C(N)=O)cc1S(=O)(=O)Nc1cccc(C)c1C	1.4%	1%	-2%	-5%	-4%	23%	-16%	u
Cc1c(Cl)cccc1NC(=O)CNC(=O)c1ccc(F)cc1	-1.8%	8%	0%	-6%	-2%	16%	-18%	-5%
COc1ccc(-n2c(CN3CCN(Cc4ccccc4)CC3)nc3ccc([N+](=O)[O-])cc3c2=O)c(OC)c1	x	1%	4%	x	-6%	-15%	x	x
C#CCSc1nc(=O)c2cccnc2n1-c1ccc(C)cc1	x	1%	1%	x	14%	1%	-14%[46.1 µM]	u
COc1ccc(S(=O)(=O)Nc2cccc(-c3ccc(N4CCCCCC4)nn3)c2)cc1	-3.9%	x	x	u	x	41%[activator]	x	-14%[46.1 µM]
CN(C)CCNC(=O)c1ccc2c(c1)N(Cc1ccc(F)cc1)CCS2	-9.9%	-4%	-6%	3%	-4%	u	x	x
COc1ccc(NC(=S)NNC(=O)c2nnn(-c3ccccc3)c2C)cc1	-0.6%	-6%	-15%	5%	-4%	1%	u	0%
CCOc1cc(C)c(C(C)C)cc1S(=O)(=O)N1CCOCC1	-1.0%	0%	-8%	14%	13%	-5%	9%	-3%
O=C(NCc1ccccc1)C(c1ccc(F)cc1)N(C(=O)c1csnn1)c1ccccc1 (stereo not given)	x	4%	1%	x	7%	-4%	-8%[46.1 µM]	-1%
O=C(CNC(=O)c1cccs1)OCc1ccc(Br)cc1	x	u	-31%	x	-19%	3%	19%[46.1 µM]	13%[46.1 µM]
Nc1ccc2c(c1)C(=O)N(CCCC(=O)O)C2=O	-2.9%	0%	8%	-5%	6%	1%	14%	-4%
Cc1c(C(=O)NC(C)C)c(-c2ccccc2)nn1-c1ccccc1	-0.8%	8%	-11%	-6%	-15%	-26%	1%	1%
CN1CCN(CCCNC(=O)C2CCN(c3nnc(-n4cccc4)s3)CC2)CC1	-2.2%	0%	13%	-14%	-2%	-2%	-1%	2%
COc1ccc2cc3cc(C(=O)Nc4ccc5c(c4)OCCO5)oc3nc2c1	1.0%	7%	4%	u	-1%	-26%	u	u
Cc1ccccc1C(=O)Nc1ccnn1C1CCN(Cc2cnn(C(C)C)c2)CC1	x	0%	15%	x	-17%	-5%	10%	u
CC1=C(C#N)C(=O)NC(=O)/C1=C/c1ccc(-c2ccc(S(N)(=O)=O)cc2)o1	x	9%	x	x	4%	-9%	-5%	1%
CCN(CC)CCCNC(=O)c1ccc2c(SCC(=O)O)c3c(nc2c1)CCC3	-2.7%	16%	4%	-8%	x	x	4%	3%
CC12CCC(=O)N1C(C(=O)OCc1c(Cl)cccc1Cl)CS2 (stereo not given)	x	-3%	-2%	x	49%	-14%	u	u
CCc1noc(C)c1C(=O)Nc1ccc(S(=O)(=O)N2CCCC(C)C2)cc1 (stereo not given)	x	1%	x	x	-13%	3%	u	-2%
CN(Cc1ccccc1)C(=O)c1nc2ccccn2c1CNCCn1cccn1	x	0%	7%	x	6%	-2%	8%[46.1 µM]	22%[46.1 µM]
CC(=O)c1ccc2c(c1)C1C=CCC1C(c1ccncc1)N2 (stereo not given)	-10%	-2%	17%	30%	2%	12%	-8%	6%
Cc1ccc(C(=O)Nc2ccc(C(=O)/C=C/c3cccs3)cc2)cc1	8.7%	2%	-5%	25µM*	-5%	34%[activator]	-17%	u
Cc1cc(C=O)c(O)cc1O	x	1%	-30%	x	-23%	-13%	x	x
CCOC(=O)N1CCC(NC(=O)CC2C(=O)NCCN2Cc2ccccc2)CC1 (stereo not given)	x	-5%	-11%	x	0%	-9%	1%	0%
CCOC(=O)Cn1cc(/C=N/N2C(=O)C3C4C=CC(C4)C3C2=O)c2ccccc21 (stereo not given)	x	0%	u	x	-3%	23%	7%[46.1 µM]	17%
Cc1cc(C)c(C)c(S(=O)(=O)NCC(=O)N2CCCC2)c1C	0.2%	-2%	-17%	2%	-10%	60%[activator]	-24%	-16%[14.3 µM]
CCN(CC)S(=O)(=O)c1cc(NC(=O)CN2C(=O)NC3(CCCc4ccccc43)C2=O)ccc1C (stereo not given)	-4.8%	-7%	-6%	1%	5%	u	u	-12%
Cc1sc(NC(=O)c2ccccc2)c(C(=O)c2ccccc2)c1C	-6.8%	-25%	-11%	5%	-22%	u	u	-15%
CSc1ccccc1C(=O)NCCS(=O)(=O)N1CCN(c2ccc(F)cc2)CC1	x	0%	x	x	-6%	-18%	-10%	14%
O=C(CN1C(=O)S/C(=C\c2ccccc2F)C1=O)NC1CCS(=O)(=O)C1 (stereo not given)	x	3%	3%	x	11%	-13%	3%[46.1 µM]	18%[46.1 µM]
Cc1ccccc1-c1nnn(CC(=O)N2CCN(C(=O)c3ccco3)CC2)n1	x	1%	x	x	-14%	-7%	u	-12%
CN1OCC(S(=O)(=O)c2ccccc2)C1c1ccccc1 (stereo not given)	x	0%	x	x	2%	-13%	-4%[46.1 µM]	16%[46.1 µM]
COc1cc(-c2cc(C(=O)Nc3nc4ccccc4s3)c3ccccc3n2)cc(OC)c1OC	-5.2%	6%	8%	13%	6%	0%	u	u
C(=Nc1ccccc1)c1ccc[nH]1	x	x	x	x	7%	8%	u	2%
COc1ccc(NC(=O)CCNS(=O)(=O)c2ccc3[nH]c(=O)oc3c2)cc1Cl	x	2%	-3%	x	1%	18%	-3%[46.1 µM]	0%[46.1 µM]
Cc1c(C(=O)NCc2ccccc2F)oc2ccccc12	x	u	1%	x	-26%	25%	x	x
Cc1cccn2c(=O)c(/C=C(\C#N)C(=O)NCc3ccco3)c(N3CCCC(C)C3)nc12 (stereo not given)	-12%	-18%	-17%	5%	x	-17%	u	-4%
O=C1CN(C(=O)Cc2ccccc2)C(c2ccc(F)cc2)c2cc(Br)ccc2N1 (stereo not given)	-5.7%	x	x	-6%	x	-19%	10µM*	u
CCCCn1c(N)c(N(CC(C)C)C(=O)C2CC(=O)N(Cc3ccco3)C2)c(=O)[nH]c1=O (stereo not given)	x	3%	15%	x	0%	0%	-14%[46.1 µM]	2%[46.1 µM]
CCc1ccc(N2CSC3=C(C#N)C(c4cccs4)CC(=O)N3C2)cc1 (stereo not given)	-7.6%	0%	-91%	u	-8%	10%	u	-17%
CC(C)NC(=O)CSc1ccccc1C(=O)N1CCN(S(=O)(=O)/C=C/c2ccccc2)CC1	x	2%	x	x	-1%	0%	-13%	1%
CCCC(C(=O)NC1CCCC1)N(Cc1ccc(OC)cc1)C(=O)c1snc(C(N)=O)c1N (stereo not given)	x	-2%	-3%	x	-7%	0%	u	u
CCCC[C@@H]1CNC(=O)C(=O)N1CC(C)(C)C	x	1%	-7%	x	7%	3%	x	x
CCOC(=O)c1cnc(COc2ccccc2Cl)[nH]c1=O	x	0%	-9%	x	-5%	-16%	-1%	-1%
Cc1ccc([N+](=O)[O-])cc1NCC(=O)NN	x	0%	5%	x	10%	5%	-1%[46.1 µM]	10%
N/N=C/C(=N\Nc1ccc(Cl)cc1)C(=O)c1ccncc1	x	-2%	-9%	x	-7%	u	u	u
Cc1ccc(C)c(N2CCN(C(=O)C3CCN(S(=O)(=O)c4cn(C)cn4)CC3)CC2)c1	-0.1%	x	x	u	x	0%	x	2%[46.1 µM]

(cont.)
Molecule	Cruzain inh Det	SARS PLpro yeast	NS1 inh	Cruzain noTriton	RE007 growth inh	2A StopGo	Marburg entry inh	LASV entry inh
CC(=O)NC(CCS(C)(=O)=O)C(=O)Nc1ccc(C)c(F)c1 (stereo not given)	6.5%	0%	-5%	-1%	0%	-15%	-27%	7%
COc1ccc(CCNC(=O)c2ccc3c(c2)NC(=O)C(C(C)C)N3)cc1OC (stereo not given)	x	0%	-18%	x	-9%	-7%	u	5%[46.1 µM]
O=C(COc1ccc(Cl)cc1)NN=C1CCCCCCC1	x	-2%	4%	x	7%	0%	8%	-3%
COc1ccc(NC(=O)Nc2cn(CC(C)C)c(=O)c3ccccc23)c(OC)c1	-5.2%	x	x	-6%	x	0%	x	14%[46.1 µM]
COC(=O)CSc1nc2ncc(Cl)cc2[nH]1	-3.3%	-2%	0%	0%	10%	12%	-29%	12%

Source: PubChem BioAssay (National Center for Advancing Translational Sciences (NCATS))
